Yeast UUG start: modulators of yeast start codon fidelity, primary screen, whole organism, S. cerevisiae, single point, plate reader; S. cerevisiae UUG-firefly luciferase reporter, luminescence/redox ratio; activity score, % at 18.7 µM; actives 0.13% (n = 350,000); AID 602363, 2012;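 active means replicate mean at a twofold rise or more, about +100% in these data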;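 further: firefly luciferase made from a UUG start codon reports start codon fidelity; reporter light over untreated wells divided by growth signal over untreated wells; some hits fall short of that in this replicate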
CSC inhib: cancer stem cell viability inhibitors, primary screen, luminescence; inhibition, % at 7.5 µM; AID 2717, 2010; actives 1.1% (n = 300,000); cancer stem cell-like cells viability;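 active means mean at 75% or more and at least half the replicates too; inconclusive means mean and replicates disagree; tested in HMLE shEcad cells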;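 further: 0% = median of negative and 100% = median of positive control wells; the first replicate is given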
PABP polyA inh: PABP poly(A) RNA binding inhibitors, primary screen, biochemical, fluorescence polarization, uHTS | Polyadenylate-binding protein 1 (Homo sapiens), P11940 | inhibition, % at 35 µM | actives 1% (n = 290,000);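 active means 50% or more with normal probe brightness, or confirmed in later tests; inconclusive means above 50% with abnormal brightness, or retests that disagree; inactive means below 50% or failed in later tests; about a fifth of its hits are not listed in these tables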;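 further: calls also rest on retests at 20 µM and on dose response follow-up; controls were probe without protein and protein plus probe with vehicle; some compounds called inactive have numbers as strong as hits; many hits fall short of the cut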
Target sequence (P11940 whole entry, looked up): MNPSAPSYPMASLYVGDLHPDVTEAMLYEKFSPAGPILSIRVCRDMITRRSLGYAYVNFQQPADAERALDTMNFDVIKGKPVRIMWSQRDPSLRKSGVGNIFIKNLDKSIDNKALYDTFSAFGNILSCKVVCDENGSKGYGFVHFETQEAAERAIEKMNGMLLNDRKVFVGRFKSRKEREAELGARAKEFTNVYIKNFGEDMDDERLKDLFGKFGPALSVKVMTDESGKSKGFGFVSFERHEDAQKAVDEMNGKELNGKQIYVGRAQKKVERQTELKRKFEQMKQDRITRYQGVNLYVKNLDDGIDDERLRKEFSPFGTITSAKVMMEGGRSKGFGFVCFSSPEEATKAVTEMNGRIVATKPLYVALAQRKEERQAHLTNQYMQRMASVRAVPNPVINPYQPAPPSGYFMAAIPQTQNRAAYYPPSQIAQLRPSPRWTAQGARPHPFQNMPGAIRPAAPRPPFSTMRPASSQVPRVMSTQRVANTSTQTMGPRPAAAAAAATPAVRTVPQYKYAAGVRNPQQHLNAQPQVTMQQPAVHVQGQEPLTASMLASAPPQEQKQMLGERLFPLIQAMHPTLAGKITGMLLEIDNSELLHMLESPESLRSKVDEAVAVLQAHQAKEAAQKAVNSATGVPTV
eIF4H FP inh: human eIF4H binding inhibitors, primary screen, translation initiation inhibitor project, biochemical, uHTS, fluorescence polarization. actives 0.94% (n = 290,000). eIF4H fluorescence polarization binding assay. inhibition, % at 35 µM. AID 2012, 2009. Eukaryotic translation initiation factor 4H (Homo sapiens), Q15056;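 active means 50% or more with normal probe brightness, or confirmed in later tests; inconclusive means above 50% with abnormal brightness, or retests that disagree; inactive means below 50% or failed in later tests; about a fifth of its hits are not listed in these tables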;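 further: calls also rest on retests at 20 µM and on dose response follow-up; 0% = protein and probe with vehicle and 100% = probe without protein; strong numbers were not always called active; many hits fall short of the cut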
Env fusion inh: inhibitors of HIV-1 Env-driven cell-cell fusion, primary screen, HeLa-JRFL effector, CEM21 target cells, luciferase. actives 1.1% (n = 360,000). inhibition, % at 12.3 µM;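 active means mean replicate inhibition score of at least 50 and every replicate individually at or above 50; inconclusive means only one of the two criteria met; inactive means mean below 50 and not all replicates reaching 50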;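 further: 0% = plate neutral controls and 100% = maraviroc near 300 nM; one replicate is shown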
Rce1 inh: yeast Rce1p protease inhibitors, primary screen, biochemical, fluorescence, cell-free homogeneous | yeast membranes, quenched prenylated peptide cleavage fluorescence | calls only | actives 0.27% (n = 290,000);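 active means fall in fluorescence gain of 50% or more versus controls, with final raw signal at or below 3038400; inconclusive means same 50% fall but final raw signal above 3038400; inactive means fall in fluorescence gain under 50%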;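 further: plate controls were neutral control wells for no effect and wells lacking membranes for full effect; tested at 10 µM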
MT1-MMP act inh: blockers of MT1-MMP proenzyme processing, primary screen, HT1080 RFP-PRO-GFP cells, GFP/RFP fluorescence. GFP/RFP ratio fluorescence, overnight; percent of plate control window, DMSO zero. GFP/RFP ratio change, % at 20 µM. actives 0.061% (n = 360,000);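 active means GFP/RFP ratio change of at least 30% with cell ATP level not reduced by more than half and red fluorescence within 50% of control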; further: strong numbers were not always called active
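system = RFP-PRO-GFP reporter HT1080 cells | dosing = 20 µM single dose, 1% DMSO | timing = overnight cell settling, then overnight compound exposure, 37 °C, 5% CO2 | read-out basis = GFP/RFP fluorescence ratio | controls = DMSO and RFP-L50D-GFP cell wells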
eIF4H FP inh retest: further read-out of eIF4H FP inh, marked with its call; inhibition, %; compound at 20 µM; confirmation average;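 mean of two retest wells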
PABP polyA inh retest: also measured in PABP polyA inh; calls as there; inhibition, %; compound at 20 µM; confirmation repeats;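 mean of two retest wells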
MT1-MMP act inh RFP: second read-out of MT1-MMP act inh, no call of its own (marks repeat the call); RFP signal change, %; measured here: RFP expression control read;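 0 = vehicle wells; hits needed this value within 50% of zero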
Numbers without * were called inactive; i = inactive; ? = inconclusive; . = no result given; & = joins results of further samples.

SMILES | Yeast UUG start | CSC inhib | PABP polyA inh | eIF4H FP inh | Env fusion inh | Rce1 inh | MT1-MMP act inh | MT1-MMP act inh RFP | others
CCN(CC)CCN1C(=O)c2ccccc2NC1c1ccccc1F (stereo unspecified) | -13 | . | -6 | 5 | -10 | i | -6 | 1
CC(=O)Nc1ccccc1NC(=O)c1cc(C)ccc1C | -14 | -8 | -2 | 1 | -9 | i | 0 | 2
CC(C)NC(=O)CCS(=O)(=O)c1ccc(Br)s1 | 13 | -11 | -11 | -6 | 8 | i | 8 | 0
COCCNc1nc2c(c(=O)n(Cc3cccc(Br)c3)c(=O)n2C)n1C | 13 | -9 | 3 | -12 | 7 | i | 2 | -1
CN(C(=O)c1cccc(NC(=O)Cc2ccc(NC(=O)C3CCCN(C(=O)C4CCC4)C3)cc2)c1)C1CCCC1 (stereo unspecified) | 4 | . | . | . | 0 | . | 3 | -3
O=C(c1csc2c1CCCC2)N1CCN(c2ncccn2)CC1 | -12 | -6 | -4 | 1 | . | i | 17 | 5
COc1nc(OC)nc(N2CCC(C(=O)Nc3cccc4c3CCCC4)CC2)n1 | -14 | -6 | 0 | 2 | -41 | i | 6 | 0
CCN(Cc1nc(-c2ccccc2)no1)C(=O)c1ccc2c(c1)OCO2 | -5 | 6 | 1 | -2 | 4 | i | -1 | -1
O=C(NC(=S)Nc1c(Cl)ccc2nsnc12)c1ccco1 | . | -1 | 2 | 0 | -5 | i | -2 | 1
CCN(CC)C(=O)C1CCN(CC2CC=CCC2)CC1 (stereo unspecified) | -10 | 19 | -4 | 6 | . | i | 3 | 8
CCOc1ccc(OCC)c(NC(=O)CN2CCN(c3cc(C)ccc3C)CC2)c1 | 13 | 50 | 4 | -8 | 61* | i | -9 | -10
O=C(NC1CCCc2ccccc21)c1ccc(S(=O)(=O)N2CCOCC2)cc1 (stereo unspecified) | . | -6 | 5 | -4 | -13 | i | 1 | 0
CC1CCCCN1Cc1c(C#N)c2ccccc2n1C (stereo unspecified) | -11 | 6 | -2 | 4 | . | i | 2 | 3
O=C(NC(Cc1ccccc1)C(=O)O)/C(=C\c1ccco1)NC(=O)c1ccco1 (stereo unspecified) | . | -20 | 34 | 78 | 16 | i | -7 | 1 | eIF4H FP inh retest=-12;PABP polyA inh retest=7
Nc1nc(-c2cc(-c3ccccc3)no2)cs1 | -22 | . | -9 | -6 | -73 | i | 3 | -3
COc1ccc(N2CCN(C(=O)c3nn(C)c4c3CS(=O)(=O)c3ccccc3-4)CC2)cc1 | -5 | -18 | . | . | 7 | i | 4 | -1
Cn1c(SCC(=O)N/N=C/c2ccco2)nc2ccccc21 | -15 | -1 | -10 | 1 | 0 | i | 4 | 4
Cc1ccccc1NS(=O)(=O)c1ccc(NC(=O)c2nc3ncccn3n2)cc1 | -13 | -22 | 8 | -7 | -31 | i | -3 | 4
CCC(NC(=O)c1ccc2nc(Cc3ccc(OC)cc3)oc2c1)c1ccncc1 (stereo unspecified) | -33 | -7 | -8 | -19 | 5 | i | -7 | -28
Cc1n[nH]c(=O)nc1NC(C)c1ccccc1 (stereo unspecified) | 5 | -12 | 6 | -7 | -104 | i | 3 | 5
Cc1ccc(C)c(S(=O)(=O)N2CCCC2CNC(=O)C(=O)NCc2ccccc2C)c1 (stereo unspecified) | . | -1 | . | . | 1 | i | 2 | -6
COc1ccc(C(=O)CCNc2ccc(F)cc2)cc1 | . | 26 | 1 | -1 | -2 | i | -7 | -16
O=C(NCc1ccc(F)cc1)c1cc2ccccc2o1 | -7 | -9 | 8 | -4 | -15 | . | 2 | 2
Cn1nccc1C(=O)OCC(=O)Nc1ccccc1 | -24 | . | 6 | -3 | 18 | i | 2 | 2
CCOC(=O)Cn1c(S(=O)(=O)Cc2ccccc2)nc2ccccc21 | -12 | 6 | -10 | -20 | ? | i | . | .

(list continues)
SMILES | Yeast UUG start | CSC inhib | PABP polyA inh | eIF4H FP inh | Env fusion inh | Rce1 inh | MT1-MMP act inh | MT1-MMP act inh RFP | others
CCc1cccc(OCC(=O)Nc2c[nH]c(=O)[nH]c2=O)c1 | . | -8 | -4 | -6 | -11 | i | 1 | 2
C=CCn1c(=O)c(C#N)cc2c(=O)n3ccccc3nc21 | . | -8 | 19 | 18 | . | i | -1 | 8
O=C(COC(=O)c1ccc2ccccc2c1)Nc1ncc(C(F)(F)F)cc1Cl | -4 | -6 | 0 | -12 | . | i | 3 | 5
Cc1ccc(NC(=O)COC(=O)c2ccco2)cc1C | -9 | -11 | . | . | -26 | . | 0 | 1
Cc1ccc(-c2cc(C(=O)N3CCN(c4ncccn4)CC3)c3cc(Br)ccc3n2)o1 | -18 | 1 | 3 | 0 | 6 | i | -7 | 2
Cc1c(Br)c([N+](=O)[O-])nn1CC(=O)Nc1ccc(C(N)=O)cc1 | . | -2 | -6 | -3 | 16 | i | 6 | 3
O=C(COC(=O)c1ccccc1Br)Nc1ccc(F)cc1 | . | -15 | -11 | -3 | -2 | i | 8 | 1
CN(C)C(=O)c1nc2ccc(Cl)cn2c1CN1CCCC(OCc2cccnc2)C1 (stereo unspecified) | 2 | -4 | 24 | 43 | 9 | . | -5 | 1
O=C(CCCn1c(=O)c2cccn2c2cccnc21)NCCc1ccc(Cl)cc1 | 9 | -14 | 2 | -9 | 1 | i | 2 | 3
O=C(COc1cccc2ccccc12)NNC(=O)[C@@H]1CCCC[C@@H]1C(=O)O | -3 | -11 | -8 | -2 | . | i | 3 | 1
COc1ccc(-n2nnnc2SCC(=O)c2cccc(OC)c2)cc1 | -21 | 44 | 1 | 1 | . | i | 1 | -4
N#C/C(=C\c1ccco1)C(=O)Nn1cnnc1 | -20 | -7 | -8 | -8 | -2 | i | 0 | -1
CCOc1ccc(CN2CCC(n3nccc3NC(=O)C3CC3)CC2)cc1CO | -5 | -8 | -4 | -4 | -9 | i | 3 | 3
CCC(C)(C(=O)NC1CCCCC1)N(Cc1cccs1)C(=O)c1ccc(=O)[nH]c1 (stereo unspecified) | . | 6 | -5 | -1 | 13 | i | 3 | 1
COc1ccc(NC(=O)c2cc(S(=O)(=O)N3CCOCC3)cs2)cc1 | -14 | 11 | -10 | 3 | 2 | i | 3 | -2
Cc1c(CCO)c(=O)[nH]n1C(=O)c1ccc(F)cc1 | -22 | -6 | -1 | -8 | -84 | i | 0 | 2
CCOc1ccc(CCNC(=O)C2CC(=O)N(C3CCCC3)C2)cc1OCC (stereo unspecified) | -3 | -2 | -7 | -6 | . | i | -1 | -2
CCOc1ccc(C(=O)c2nc3c(n2O)CCCC3)cc1 | -10 | 21 | -2 | -8 | . | i | 3 | -2
CN1CCN(/C=N/c2sc3c(c2C#N)CCCCC3)CC1 | -8 | 18 | 6 | 9 | . | i | 7 | 0
COCc1ccc(CN2CCc3c([nH]c4ccccc34)C2CC(C)C)o1 (stereo unspecified) | -2 | -2 | 119* | 67 | 8 | i | -4 | 2 | eIF4H FP inh retest=-4;PABP polyA inh retest=96*
Cc1ccnc(NC(=O)CCC(=O)N(CC(=O)NCc2ccccc2)Cc2ccco2)c1 | . | 0 | 2 | -2 | 2 | i | -2 | 0
Cc1c(NC(=O)c2ccc(-c3ccccc3)cc2)cccc1C(=O)O | -74 | . | -3 | -2 | 1 | i | 0 | 2
CC(Cc1n[nH]c(=S)n1N)c1ccccc1 (stereo unspecified) | 2 | 2 | -5 | -3 | -2 | i | 2 | 3
CSC(=NS(=O)(=O)c1ccccc1)SC | -29 | -11 | 8 | -1 | . | i | 0 | 3
CN(C)CCN1C(=O)c2oc3ccccc3c(=O)c2C1c1cccc(Br)c1 (stereo unspecified) | -9 | -3 | 0 | 2 | 5 | i | -1 | 3

Other records.
SMILES | Yeast UUG start | CSC inhib | PABP polyA inh | eIF4H FP inh | Env fusion inh | Rce1 inh | MT1-MMP act inh | MT1-MMP act inh RFP | others
N#Cc1c(NC(=O)c2ccco2)sc2c1CCC2 | -15 | -6 | 49* | 74* | -107 | i | -2 | 0 | eIF4H FP inh retest=83*;PABP polyA inh retest=88*
Cc1cc(C)c(S(=O)(=O)N2CCOC2CNC(=O)C(=O)NCc2ccccn2)c(C)c1 (stereo unspecified) | -27 | -5 | 0 | 3 | 8 | i | -1 | 0
CC1(C(=O)NCc2cc(F)cc(C(F)(F)F)c2)C=CC2(CCCCC2)N1C(=O)c1ccccc1 (stereo unspecified) | -4 | 35 | -2 | -1 | 10 | . | 0 | -3
Cn1c(=O)c2c(-c3ccccc3)n(-n3cnnc3)cc2n(C)c1=O | -2 | -12 | -1 | -8 | . | i | 6 | 4
COc1ccc(Cl)cc1NC(=O)CN(C)C(=O)c1cccc(-n2cnnn2)c1 | 2 | -12 | . | . | . | . | 6 | 5
Cc1cc(=O)oc2cc(OCC(=O)N3CCCc4ccccc43)ccc12 | -10 | . | 8 | 5 | . | i | 0 | 2
COc1ccc(N2CCN(CCCNC(=O)C3CCCN(S(=O)(=O)c4cnc[nH]4)C3)CC2)cc1 (stereo unspecified) | 9 | 0 | 8 | 7 | -6 | i | -1 | 2
C[C@H](CO)N1C[C@H](C)[C@@H](CN(C)S(=O)(=O)c2ccccc2)Oc2c(cccc2N(C)C)C1=O | -8&-6 | -8 | . | . | -3 | . | -3 | -2
COc1ccc(OC)c(NC(=S)NCCN2CCOCC2)c1 | . | . | 3 | -3 | -8 | i | 1 | 1
CCOC(=O)c1c(C)n(OCc2ccccc2)c2ccc3nonc3c12 | -15 | 14 | 8 | 14 | . | ? | -4 | -4
O=C(Nc1ccc2c(c1)C(=O)OC2)c1ccc(F)cc1F | . | 9 | -2 | -18 | 0 | i | 0 | 2
Cc1cc(NC(=O)COC(=O)C2CC(=O)N(c3ccc(Br)cc3)C2)no1 (stereo unspecified) | -11 | -11 | -1 | -5 | -1 | . | 0 | -2
CCCc1cc(=O)n2[nH]c(C(F)(F)F)nc2n1 | -11 | -12 | 2 | -7 | 1 | i | 1 | 6
CCN(C(=O)CSc1nnc(-c2c[nH]c3ccccc23)n1C1CC1)C1CCS(=O)(=O)C1 (stereo unspecified) | -5 | -18 | . | . | -7 | . | 2 | 4
COC(=O)c1cccc(NC(=O)CC2NCCNC2=O)c1 (stereo unspecified) | 3 | -6 | -3 | -4 | 9 | i | 0 | 1
CCCS(=O)(=O)c1nc(S(=O)(=O)c2ccc(C)cc2)c(N2CCCC2)s1 | -14 | -4 | -20 | -12 | . | i | -10 | -7
N#Cc1ccccc1NC(=O)CNc1ccccc1N1CCCCC1 | -12 | -1 | 0 | 3 | 1 | i | -7 | -3
Cc1cc(Cl)c(S(=O)(=O)Nc2ccon2)cc1OCC(=O)NC1CCCCC1 | -5 | . | -7 | -2 | -82 | i | -4 | 0
COc1cc2ncnc(NCc3ccc4c(c3)OCO4)c2cc1OC | -12 | 28 | -8 | -5 | 21 | i | 1 | -3
O=C(NNc1nc2ccc(F)cc2s1)c1cccc(F)c1 | . | 63 | 5 | 9 | -2 | i | 0 | -7

Assay outcomes as filed in PubChem BioAssay.

An unsorted share of the library; overall some 2.9% were active at least once.
